# From PubChem BioAssay
# TRPML1 ag: agonists of human TRPML1 channel; actives 0.12% (n = 410,000); activation, % (concentration not given with the values); TRPML1-expressing cells, Ca2+ dye fluorescence, FDSS; host cell line not named in the record; reference of the full effect not given here; Q9GZU1; in the data active = activation above about 50%; inconclusive = about 30% to 50%; inactive = below about 30%; further: 0% is about no effect; the text of the record puts the active cut at 80%
# Target sequence (Q9GZU1 whole entry, looked up): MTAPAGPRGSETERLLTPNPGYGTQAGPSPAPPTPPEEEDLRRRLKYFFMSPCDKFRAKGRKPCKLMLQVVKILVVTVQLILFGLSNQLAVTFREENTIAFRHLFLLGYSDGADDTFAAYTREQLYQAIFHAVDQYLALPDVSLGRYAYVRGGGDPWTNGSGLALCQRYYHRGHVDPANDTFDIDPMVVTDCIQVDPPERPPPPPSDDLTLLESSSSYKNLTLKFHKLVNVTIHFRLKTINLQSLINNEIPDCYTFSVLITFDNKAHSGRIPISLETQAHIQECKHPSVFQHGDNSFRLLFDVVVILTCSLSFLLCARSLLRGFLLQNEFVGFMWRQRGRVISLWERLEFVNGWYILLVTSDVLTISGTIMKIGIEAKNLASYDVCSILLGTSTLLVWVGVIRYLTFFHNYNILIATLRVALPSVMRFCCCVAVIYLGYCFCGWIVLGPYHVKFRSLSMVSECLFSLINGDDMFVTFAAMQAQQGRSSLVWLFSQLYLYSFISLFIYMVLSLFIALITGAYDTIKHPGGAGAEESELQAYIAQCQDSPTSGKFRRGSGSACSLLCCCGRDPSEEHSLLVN
#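 Cells: TRPML1-DL, 1X Tet inducer, ~16 h at 37 degrees C/5% CO2. Dye: ABD Ca8 no-wash + quencher, 45-90 min RT. Read: 10 s baseline, compound add, 110 s agonist phase; 54-4 EC80 (4uM final), 110 s antagonist phase.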
# Six1-Eya2 inh: Six1/Eya2 interaction inhibition. Q15475+O00167. AlphaScreen GST-Six1/His-Eya2 binding, biochemical; stronger effect = lower value; control for the full effect not named in the record. activity change, % (concentration not given with the values). actives 0.56% (n = 360,000). AID 651725; in the data active = activity change below about -65%; inconclusive = about -30% to -65%; inactive = above about -30%; further: on the % scale 0 is the no-effect control and ±100 the full control effect
#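 GST-Six1 + His-Eya2 (5X stock: 250/500 nM); Tris pH 8.0, 300 mM NaCl, 0.05% BSA, 0.02% Tween 20; GSH donor/Ni acceptor beads; 1 h 37 °C dark; AlphaScreen readout.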
# PINK1 modulator: PINK1 expression modulation. PINK1 immunofluorescence, high-content cytometry, 24 h. actives 0.2% (n = 410,000). Potency, µM (top dose mostly 76.6 µM), without a hit: at the highest dose activation (PINK1 increase), hits mostly activators; active = well fitted activation curve with a large enough effect; inconclusive = small, poorly fitted or top-dose-only effect; inactive = flat fitted curve, though single readings scatter; cell line not stated here;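 further: potency means the concentration at half of the fitted maximal effect; % of control where 0% means no effect; nearly all actives have a fitted effect of over 65% in size; a mitochondrial uncoupler was the plate control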
#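 Stable cell line, 250 cells/well, 12 h attachment; compounds pinned at 5 concentrations, 24 h; CCCP control. Fixed with nuclear dye, primary antibodies 12 h at 10 degrees C, secondary plus cell stain; laser-scanning cytometer read.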
# D2 ag: human D2 receptor agonism in beta-arrestin assay | P14416 | DiscoveRx PathHunter D2 beta-arrestin, luminescence, 90 min; 100% = 57 uM dopamine signal | activation, % (no concentration beside the values) | actives 0.084% (n = 360,000) | AID 624465; in the data active = activation above about 40%; inconclusive = about 15% to 40%; inactive = below about 15%; further: compound concentration not given in the record; the text of the record calls up to 30% inactive
# Target sequence (P14416 whole entry, looked up): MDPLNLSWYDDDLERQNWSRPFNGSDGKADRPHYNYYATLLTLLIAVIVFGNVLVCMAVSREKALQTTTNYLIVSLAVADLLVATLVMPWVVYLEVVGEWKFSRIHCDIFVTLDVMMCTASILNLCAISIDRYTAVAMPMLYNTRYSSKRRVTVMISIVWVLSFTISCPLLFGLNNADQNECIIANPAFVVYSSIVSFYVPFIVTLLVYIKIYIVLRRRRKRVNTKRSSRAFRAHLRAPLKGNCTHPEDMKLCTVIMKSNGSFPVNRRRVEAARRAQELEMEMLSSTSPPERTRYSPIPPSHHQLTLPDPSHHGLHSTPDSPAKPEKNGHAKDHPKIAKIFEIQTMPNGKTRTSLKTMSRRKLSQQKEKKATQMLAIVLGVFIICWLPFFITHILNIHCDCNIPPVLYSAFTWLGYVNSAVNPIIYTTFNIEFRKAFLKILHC
#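 Agonist mode: compounds alone added to overnight-plated D2 PathHunter cells for 90 min at 37 C, with 57 uM final dopamine (EC100) defining full response. Beta-arrestin recruitment detected by chemiluminescent reagent, read after 1 h at ambient temperature.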
# D2 potentiator: positive allosteric modulators of human D2 dopamine receptor; potentiation, % (concentration not given with the values); P14416; DiscoveRx D2 beta-arrestin cells, luminescence, 90 min; 100% = 57 uM dopamine signal; actives 0.23% (n = 360,000); active = potentiation of 50% or more; inconclusive = 30% to 50%; inactive = 30% or less;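 further: compound concentration not given in the record; tested on top of an EC20 dose of dopamine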
#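 PathHunter beta-arrestin assay in DiscoveRx D2 cells. Compounds were added with an EC20 of dopamine (50 nM final) for 90 min at 37 deg C. Luminescence was read 1 h after detection reagent, with 57 uM dopamine as the EC100 control.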
# CtBP-E1A inh: blocks the CtBP interaction with E1A; activity change, % (test concentration not listed); AlphaScreen GST-E1A/His-CtBP binding, 1536-well; stronger effect = lower value; control for the full effect not named in the record; actives 0.49% (n = 340,000); AID 651724; in the data active means activity change below about -65%; inconclusive means about -30% to -65%; inactive means above about -30%; further: on the % scale 0 is the no-effect control and ±100 the full control effect; compound concentration not given in the record
#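 AlphaScreen with 125 nM GST-E1A and 125 nM His-CtBP (5X stocks) in Tris pH 8.0, 300 mM NaCl, BSA, Tween 20, TCEP. Compounds preincubated 2 h at 37 deg C, then glutathione donor/nickel acceptor beads added for 1 h at 37 deg C in dark.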
# Numbers without * were called inactive; ? = inconclusive; nt = no result given; & = joins results of further samples; [ ] = remark or other dose.
# The first 2 records, ahead of the listing:
SMILES,TRPML1 ag,Six1-Eya2 inh,PINK1 modulator,D2 ag,D2 potentiator,CtBP-E1A inh
COc1ccc(C(=O)N2CCCC(Nc3ccc(C)c(C)c3)C2)c(OC)n1 (configuration not stated),2.3,-6.2,-1.0%,-1.7,-18.0,-7.5
Fc1cccc(CCN2CCN=C2Nc2ccccc2)c1,8.9,1.1,1.9%,-4.5,-19.7,-5.6

# The listing (from the top)
SMILES,TRPML1 ag,Six1-Eya2 inh,PINK1 modulator,D2 ag,D2 potentiator,CtBP-E1A inh
COc1ccc(C(=O)N2CCCC(Nc3ccc(C)c(C)c3)C2)c(OC)n1 (configuration not stated),2.3,-6.2,-1.0%,-1.7,-18.0,-7.5
Fc1cccc(CCN2CCN=C2Nc2ccccc2)c1,8.9,1.1,1.9%,-4.5,-19.7,-5.6
Cc1cc(-c2nnc(SCC(=O)c3ccc(F)cc3)o2)no1,0.3,8.0,5.8%,-4.4,0.0,0.7
CC(Oc1ccc(Br)cc1)C(=O)Nc1nc(-c2ccccn2)cs1 (configuration not stated),-0.6,-73.1*,10.9%,-1.4,-9.5,?
CS(=O)(=O)N(CC(N)=O)c1ccc2c(c1)OCO2,1.6,-1.2,-0.3%,1.1,12.1,5.5
CC1=C(C(=O)OCc2ccccc2)C(c2cccc3ccccc23)NC(=O)N1CCCC(=O)O (configuration not stated),0.1,7.4,-0.3%,-1.0,-6.0,nt
O=C(Nc1ccccc1)N1CCN(c2nc(-c3ccccc3)ns2)CC1,-0.2,-12.5,-0.9%,1.2,0.5,-5.5
O=C(NCCc1ccccc1)c1n[nH]c2ccccc12,-1.0,0.4,-0.6%,-1.6,-4.0,nt
CCCCN1C(=O)c2ccc(C(=O)OCC(=O)NCCc3ccc(S(N)(=O)=O)cc3)cc2C1=O,0.2,-1.8,5.3%,-2.6,-14.8,0.3
CC(C)NC(=O)c1ccc2c(=O)n(C3CCCC3)c(=S)[nH]c2c1,-0.1,1.9,2.1%[38.3 µM],-1.4,3.4,2.4
COc1ccccc1C(=O)NCC(=O)OCc1nnc(-c2ccccc2)o1,-0.7,3.0,-0.2%,-4.6,-13.8,-1.2
O=[N+]([O-])c1cccc(/C=N/Nc2ccccn2)c1,0.5,3.6,-0.4%,-1.9,-0.6,-12.4
O=C(Nc1ccc2c(c1)OCO2)C1(S(=O)(=O)c2ccc(Cl)cc2)CC1,0.2,-6.6,0.2%[38.3 µM],2.4,6.1,3.5
CCOc1ccccc1N1CCN(C(=O)c2cc(C)oc2C)CC1,1.8,-5.1,-1.6%[38.3 µM],-3.5,-18.8,-7.3
Cc1ccc(-c2csc3ncnc(Sc4nnc(CN5CCCCCC5=O)o4)c23)cc1,5.0,2.7,-2.9%,-3.7,-23.2,5.1
CC(CC(=O)Nc1nc2ccccc2[nH]1)c1ccccc1 (configuration not stated),0.6,6.3,3.8%,-1.9,-11.8,-1.8
C#CCOCCOCCOCCNc1nc(N2CCN(C(=O)[C@H]([C@@H](C)CC)n3cc([C@@H](N)Cc4ccc(O)cc4)nn3)CC2)nc(N2CCN(C(=O)[C@H](Cc3ccc(O)cc3)n3cc([C@@H](N)CC(C)C)nn3)CC2)n1,-0.4,-13.7,-1.3%,-2.3,-23.1,-11.8
CCCCn1nnc(NC(=O)COc2ccc(Cl)c(C)c2)n1,4.0,1.4,-0.2%[38.3 µM],-0.7,7.7,10.3
Cc1ccc(NC(=O)c2ccccc2NS(=O)(=O)c2ccc(F)cc2)cc1S(=O)(=O)N1CCCCC1,0.0,-8.5,11.2µM*,-1.4,-21.9,-7.0
O=C(CN1CCC(c2nc3ccccc3[nH]2)CC1)NCc1ccc2c(c1)OCO2,0.3,-0.8,-1.7%[38.3 µM],-1.4,-16.1,-3.1
Cc1cccc(C)c1-n1nnnc1C(c1cccc2ccccc12)N1CCN(C/C=C/c2ccccc2)CC1 (configuration not stated),-0.5,-28.1,-0.2%,-1.4,-13.8,-29.3
O=C(O)c1cccc(NC(=O)c2ccc3c(c2)C(=O)N(c2ccccc2)C3=O)c1,-0.9,10.8,2.4%,-3.3,-9.3,8.9
C/C(CCc1ccco1)=N/NC(=O)CCC(=O)Nc1ccc(Br)cc1,-0.4,-2.1,1.7%,-0.9,-6.8,-1.0
Cc1ccc(S(=O)(=O)N2CCC(C(=O)Nc3nnc(-c4ccc(F)cc4)s3)CC2)cc1,-0.2,11.4,3.2%,-8.1,-7.7,-0.7
C(=NN1CCCCCC1)c1ccccc1,0.8,-11.7,10.5%,-1.1,0.5,0.2
O=C(Cc1ccccc1)NN1C(=O)C2C3C=CC(C4CC34)C2C1=O (configuration not stated),0.7,6.5,2.3%,-4.7,-13.1,-2.2
O=C(O)CC/C(=C\c1cc2c(cc1Br)OCO2)c1nc2ccccc2s1,-0.1,8.6,0.0%,-1.8,0.4,0.1
CN=C1SC(CC(=O)Nc2cccc(C(F)(F)F)c2)C(=O)N1C (configuration not stated),0.5,-2.1,-1.9%[38.3 µM],-1.7,2.8,-7.3
OC(COCc1cccs1)CN1CCCCCC1 (configuration not stated),0.3,10.4,-0.9%,1.2,-28.3,-6.7
O=C(N[C@H](Cc1ccc(Cl)cc1)C(=O)O)OCC1c2ccccc2-c2ccccc21,-0.4,33.1,-0.9%,2.4,8.5,40.2
Cc1nc(N2CCOCC2)nc(N2CCCCC2C)c1[N+](=O)[O-] (configuration not stated),3.6,-23.4,-2.3%,-2.1,1.5,-20.5
Cc1ccc(C2CC(c3ccc(NS(C)(=O)=O)cc3)=NN2C(=O)c2ccco2)cc1 (configuration not stated),0.9,-25.4,-3.4%,-0.7,-0.9,-24.0
CC1(Cc2ccc(Cl)cc2)C(=O)Nc2c(Cl)cccc21 (configuration not stated),0.0,-3.3,2.5%,-4.4,-4.4,0.0
COc1ccc(CCNS(=O)(=O)c2ccc3c(c2)NC(=O)CO3)cc1OC,0.3,-10.7,0.2%,4.4,-1.4,0.0
COc1ccc(C2C(C(N)=O)=C(C)Nc3nc(CCCO)nn32)cc1 (configuration not stated),-0.4&-0.5,4.6,-0.7%&-0.1%,-1.6,-7.6,7.6
COCCNC(=S)N/N=C(\C)c1ccc(OC)cc1,-0.2,1.5,-1.4%,-2.9,0.1,2.4
CCCCc1nc2cc(C(=O)N3CCC(OCCOC)CC3)ccc2o1,0.1,1.4,0.8%,-0.7,-4.6,-2.5
Cc1ccc(N(CC(=O)NC(C)(C)C)C(=O)CCC(=O)Nc2nccs2)c(C)c1,-0.1,-1.3,-0.2%,-5.4,-1.5,8.7
O=C1NC2(CCCCCC2)N=C1c1ccc(Br)cc1,0.8,-3.1,2.3%,-5.0,1.0,nt
CCN(CC)c1ccc(NC(=O)COc2ccccc2C#N)cc1S(=O)(=O)Nc1ccc(OC)cc1,0.6,-6.5,0.7%,-1.5,-7.9,-3.1
C[C@@H]1CN([C@@H](C)CO)C(=O)c2ccccc2-c2ccccc2CO[C@@H]1CN(C)S(=O)(=O)c1ccc(C(F)(F)F)cc1,-0.2,5.7,2.9%,1.9,-0.2,5.2
CCC1CCCCN1CCNC(=O)C1CCCN(S(=O)(=O)c2cccc3nsnc23)C1 (configuration not stated),0.0,-3.1,0.1%,-4.4,-32.7,1.1
O=C(CC(NS(=O)(=O)c1ccc(Cl)cc1)c1ccco1)NCc1ccco1 (configuration not stated),-0.2,0.9,-1.5%,1.6,1.1,-10.1
CC(C)c1ccc(NC(=O)CCN2C(=O)c3ccc([N+](=O)[O-])cc3C2=O)cc1,0.8,-1.0,12.2%[38.3 µM],5.0,?,1.8
CC(=O)Oc1cccc(N2C(=O)C3C4C=CC(C4=C(C)C)C3C2=O)c1 (configuration not stated),2.2,-2.5,-2.0%,0.4,0.5,-3.7
Nc1ccc(C(=O)NC2CCSc3ccccc32)cc1[N+](=O)[O-] (configuration not stated),1.7,-4.0,0.3%,2.4,-14.3,-6.8
Cc1cc(N2C(=O)C3C4c5ccccc5C(c5ccccc54)C3C2=O)no1 (configuration not stated),0.8,0.8,0.9%,-4.9,18.7,-13.2
CCOC(=O)N1CCN(C(=O)/C=C/c2ccc(C(C)(C)C)cc2)CC1,2.5,6.7,1.3%,5.3,-3.0,-9.3
Cc1cccc(N2CN(Cc3ccco3)CNC2=S)c1,-0.1,5.4,0.1%,-5.5,17.9,-2.8
COc1ccc(C)cc1NC(=O)c1cc(S(=O)(=O)N2CCOCC2)cn1C,-0.8&-0.8,-3.0,0.3%&1.1%,-2.6,-1.7,3.7

# New compounds follow:
SMILES,TRPML1 ag,Six1-Eya2 inh,PINK1 modulator,D2 ag,D2 potentiator,CtBP-E1A inh
O=S(=O)(c1ccccc1)N1N=C(c2ccc(Br)cc2)CC1c1ccco1 (configuration not stated),1.1,-5.0,-1.3%,2.8,-7.0,-5.5
CN(C)CCNC(=O)c1ccc(Cl)s1,0.4,2.1,2.2%[38.3 µM],-0.9,-15.2,3.2
COc1cccc(C(=O)n2cnnc2N)c1OC,-0.4,2.7,6.0%[38.3 µM],-0.5,-14.6,2.8
CCN(CC)CCNC(=O)c1c(C)oc2cc(Br)c(OC)cc12,1.3,3.2,-1.4%,0.1,-11.0,-1.6
O=C(Nc1cc(Cl)ccn1)C1CCN(S(=O)(=O)c2cccs2)CC1,-0.3,1.9,-0.1%,-1.4,-6.2,1.7
CCOC(=O)C1CCN(C(=O)CN2C(=O)c3ccccc3S2(=O)=O)CC1,0.0,8.7,2.3%,-3.5,-1.7,3.7
COCC(C)n1c(SCC(=O)N(C)C2CCS(=O)(=O)C2)nc2ccccc2c1=O (configuration not stated),1.0,12.4,2.1%,1.8,2.9,3.0
CCN1C(=O)c2cccc3c(S(=O)(=O)NCc4cccnc4)ccc1c23,0.1,-1.9,-0.8%,3.2,-30.7,6.1
O=C(c1ccccc1-c1ccccc1)N1CCN(c2ccccn2)CC1,0.1,4.9,2.3%,-4.2,-6.6,6.3
Cc1cnc(C(=O)OCC(=O)NCc2ccc3c(c2)OCO3)cn1,-0.1,-1.8,0.0%,-6.0,-7.4,7.7
COc1ccc2cc(/C=N/NC(=O)CSCc3ccc([N+](=O)[O-])cc3)c(Cl)nc2c1,-0.5,-3.3,?,3.5,10.2,-2.1
CCOC(=O)C1CCN(C(=O)Cn2cc(C(=O)OC)c3ccccc32)CC1,0.4,1.9,-1.1%,-1.0,2.9,4.3
O=C(C=Cc1ccccc1)c1cccs1,-0.2,0.0,-2.0%,-1.0,-26.4,0.1

# Single records (already shown). Values in the order: TRPML1 ag, Six1-Eya2 inh, PINK1 modulator, D2 ag, D2 potentiator, CtBP-E1A inh
# CCN1C(=O)c2cccc3c(S(=O)(=O)NCc4cccnc4)ccc1c23 across the screens: 0.1, -1.9, -0.8%, 3.2, -30.7, 6.1
# COc1ccc2cc(/C=N/NC(=O)CSCc3ccc([N+](=O)[O-])cc3)c(Cl)nc2c1 across the screens: -0.5, -3.3, ?, 3.5, 10.2, -2.1
